2A firefly = FMDV 2A StopGo reporter, firefly signal; HEK cells with a luciferase reporter of 2A StopGo recoding; Potency, µM (top dose mostly 57.5 µM), inactives show at the top dose signal change, negative = less light; 120,000 tested, 0.23% active; active = well fitted falling curve with a large enough effect; inconclusive = small, poorly fitted or top-dose-only effect; inactive = no such curve, though single readings can be large or run the other way; further: nearly all actives have a fitted effect of over 60% in size; overnight with compound
2A Renilla = FMDV 2A StopGo reporter, Renilla signal; HEK cells with a luciferase reporter of 2A StopGo recoding; Potency, µM (doses to about 57.5 µM), for the others: top-dose signal change, negative = less light; 120,000 tested, 0.32% active; active means well fitted falling curve with a large enough effect; inconclusive means small, poorly fitted or top-dose-only effect; inactive means no such curve, though single readings can be large or run the other way; further: nearly all actives have a fitted effect of over 55% in size; overnight with compound
Active calls of the source: *; ? = inconclusive; [ ] = dose if it differs, or a comment. On the % scale 0 is the no-effect control and ±100 the full control effect; potency means the concentration at half of the fitted maximal effect. Some of the compounds tested, so the mix of outcomes need not match the whole.

SMILES	2A firefly	2A Renilla
COc1ccc(Oc2c(C(F)(F)F)oc3cc(OCC(=O)O)ccc3c2=O)cc1	-1.2%	-3.9%
CN(C)CCc1ccc(O)cc1	-0.2%[11.5 µM]	-8.5%
Cc1ccc(C)c(NC(=O)CSc2nc(=O)n(CCN(C)C)c3c2CCC3)c1	-12.8%	53.9%[activator]
COc1ccc(Cl)cc1NC(=O)Cn1c(=O)c(-c2ccccc2NC(C)=O)nc2ccccc21	5.6%	6.8%
O=C(CSc1nnc(N2CCOCC2)n1-c1cccc(F)c1)Nc1ccc2c(c1)OCCO2	41.8%[activator]	24.5%
CCCN1C(SCC(=O)N(CC)CC)=NS(=O)(=O)c2ccccc21	-0.3%	2.3%
Cc1ccccc1N1C(N)=C(C#N)C(c2ccsc2)C2=C1CC(C)(C)CC2=O (centres undefined)	23.3%	7.6%
C=C(C)C(=O)OCC(O)CO (centres undefined)	-16.4%	-10.8%
Cc1cnc(NC(=O)c2nc(C)n(-c3ccc(F)cc3)n2)s1	180.3%[activator]	0.0%
Cc1cc2c(cc3c(SCC(=O)Nc4cccc(Cl)c4C)nnc(C)n32)o1	0.0%	-3.3%
Cc1ccc(NC(c2nnc(-c3ccccc3)o2)c2ccccc2F)c(Cl)c1 (centres undefined)	5.0%	38.3%[activator]
CCOc1ccc(-c2csc3ncnc(Nc4cccc(O)c4)c23)cc1	-25.3%	8.9%
CCC(C)NC(=O)CN1C(=O)C(C)(C)c2cc(S(=O)(=O)N3CCCC3)ccc21 (centres undefined)	4.6%	4.7%
CCCCCn1c(=O)[nH]c2cc(C(=O)Nc3ccc(OC)c(OC)c3)ccc2c1=O	-5.2%	-7.0%
NC(=O)CN(CC1CCOC1)C1CC1 (centres undefined)	11.3%	2.9%
CC(c1cc2ccccc2o1)N(C)Cc1nnc(-c2ccccc2)o1 (centres undefined)	49.6%[activator]	19.9%
C=CCNC(=O)NC(=O)CN1CCSCC1	-4.5%	7.9%
COc1ccc(CCNC(=O)C(=O)NCC(c2cccs2)S(=O)(=O)c2ccccc2)cc1 (centres undefined)	14.3%	17.3%
CN(C)C(=O)c1ccc(NC(=O)c2cc(-c3ccco3)nc3ccccc23)cc1	0.0%	9.1%
CC(=O)Oc1ccc2c(=O)c(-c3ccc4c(c3)OCCCO4)c(C)oc2c1	83.0%[activator]	6.6%
CC(=O)c1ccc(NC(=O)c2ccc(CN3C(=O)CCn4nc(C)cc43)cc2)cc1	30.5%[activator]	-12.3%
CSc1nnc(-c2ccccc2NC(=O)c2ccc(C)c(S(=O)(=O)N3CCCCCC3)c2)o1	4.1%	0.4%
COc1ccc(OC)c(CN2CCN(S(=O)(=O)c3ccccc3)CC2)c1	-6.2%	6.2%
CCOC(=O)CC(=O)Nc1c(NC2CCCCC2)c2ccccc2oc1=O	-8.5%	-6.5%
OCCN(CCO)CC(O)COc1cccc2ccccc12 (centres undefined)	22.6%	9.8%
Cc1ccc(-c2[nH]c(-c3ccc(F)cc3)nc2SCC(=O)Nc2nccs2)cc1	11.9%	2.2%
Cc1ncc(CO)c(CN)c1O	-17.3%[11.5 µM]	-14.5%
Cc1ccc(NC(=O)CSc2nc3c(c(=O)[nH]2)CCC3)cc1Cl	7.8%	1.3%
COCCCNCc1cccc2ccccc12	0.0%	8.7%
Cc1ccc(Nc2ccc(N3CCN(S(=O)(=O)c4ccc(Cl)c(Cl)c4)CC3)nn2)cc1	9.8%	3.5%
CCOc1ccc(NC(=O)N2CCC(N(C)C(C)C)CC2)cc1	1.8%	-6.3%
COc1ccc(S(=O)(=O)N2Cc3ccccc3CC2C(=O)Nc2ccc(C)cc2C)cc1OC (centres undefined)	-16.1%	34.4%[activator]
CNc1c(NC(=O)NCc2cccc(OC)c2)c(=O)oc2ccccc12	0.0%	5.4%
Cc1ccc(S(=O)(=O)N2CCCc3cc(NS(=O)(=O)c4cc(C)ccc4C)ccc32)cc1	?	126.8%[activator]
O=C(Cn1cc(S(=O)(=O)Cc2cccc(Cl)c2)c2ccccc21)Nc1ccccc1Cl	53.8%[activator]	9.8%
O=C(Nc1cccc(F)c1)c1ccc2c(c1)CCC2	180.1%[activator]	12.4%
CCOc1ccc2nc(N3CCN(C(=O)c4ccc5c(c4)CCCC5)CC3)sc2c1	-8.1%	-3.4%
COc1ccc(NC(=O)C(Cc2ccccc2)n2cccc2)c(OC)c1 (centres undefined)	0.1%	19.1%
CCCNc1c(NC(=O)Nc2ccccc2OCC)c(=O)oc2ccccc12	2.7%	31.1%[activator]
Cc1cccc(OCC(=O)Nc2c(C)ccc3nsnc23)c1C	-9.8%	2.1%
O=C(/C=C/c1ccc([N+](=O)[O-])cc1)c1ccccc1	64.1%[activator]	5.4%
COc1ccc(Cc2nnc(NS(=O)(=O)Cc3ccccc3)s2)cc1	-2.0%	-26.9%
Cc1ccc(O)c(CCc2ccc(O)cc2)n1	0.0%	13.1%
COc1ccc(Nc2cc(C)c3ccccc3n2)cc1	200.6%[activator]	-4.9%
Cc1cc(C)c(/C=C/c2onc(C)c2S(=O)(=O)N2CCC(C(=O)N(C)Cc3ccccc3)CC2)c(C)c1	-19.5%	-2.6%
COc1ccc(N2CCCS2(=O)=O)cc1NS(=O)(=O)c1cc(C)ccc1C	8.6%	0.0%
Cc1ccccc1NC(=O)CSc1nc2ccc(NC(=O)c3ccccc3)cc2s1	3.7%	38.2%[activator]
COc1ccc(S(=O)(=O)NCC(c2ccco2)N2CCOCC2)cc1 (centres undefined)	23.5%	135.1%[activator]
Cc1cc(C)cc(Nc2nc3ccccc3nc2NS(=O)(=O)c2ccccc2)c1	2.3%	-1.9%
Cc1ccc(C)c(C(=O)CCC(=O)N2CCc3sccc3C2c2cccs2)c1 (centres undefined)	7.7%	17.1%
CNC(C)c1cccs1 (centres undefined)	4.1%	3.2%
CCN(CC(=O)NCc1cccs1)C(=O)c1ccc(N(C)S(=O)(=O)c2ccc(C)cc2)cc1	-15.2%	8.4%
Clc1ccccc1CN1CCc2ccccc2C1	20.7%	2.3%
Cc1cccc(N2C(=O)CSC23C(=O)N(Cc2cccc(F)c2)c2ccccc23)c1 (centres undefined)	-27.6%	-7.9%
CCOC(=O)c1ccc(NC(=O)COC(=O)c2cc(C)nc3ccccc23)cc1	0.0%	38.9%[activator]
CCCCCC1CCC(c2ccc(C(=O)Oc3cccnc3)cc2)CC1 (centres undefined)	6.0%	-6.5%
COCCNC(=O)NC(=O)CN(Cc1ccccc1)c1ccc(C)cc1	0.0%	0.0%
CC(C)c1ccc(NC(=O)[C@H]2O[C@@H]3OC(C)(C)O[C@@H]3[C@H]3OC(C)(C)O[C@H]32)cc1	57.6%[activator]	3.5%
O=C(NCC(c1ccco1)S(=O)(=O)c1cccs1)c1ccccc1 (centres undefined)	13.0%	22.3%
O=C(CSc1nc2ccccc2s1)Nc1cccc(C(F)(F)F)c1	9.0%	-8.5%

Additional compounds follow:
SMILES	2A firefly	2A Renilla
COc1ccc(CNC(=O)C(CCSC)NS(=O)(=O)c2ccc3c(c2)oc(=O)n3C)cc1 (centres undefined)	-17.5%	-8.3%
Cc1cc(C)c(C(C)NC(=O)Cn2nnn(-c3ccccc3)c2=O)cc1C (centres undefined)	-5.0%	-17.5%
Cc1ccc(CN2C(=O)c3ccccc3Sc3ccc(C(=O)N4CCOCC4)cc32)cc1	-18.6%	0.0%
CCc1ccc(NC(=O)c2nnn(Cc3cccc(C(F)(F)F)c3)c2N)cc1	-13.6%	10.4%
O=C(CSc1ccc2nc(-c3ccccc3)cn2n1)Nc1cccc(F)c1	146.5%[activator]	8.2%
CC(C)c1ccc(NC(=O)c2ccc(CSc3ccc(Cl)cc3)cc2)cc1	95.3%[activator]	11.7%
Cc1ccc(NC(=O)C2=C(N3CCOCC3)c3ccccc3S2(=O)=O)cc1	38.3%[activator]	-19.3%
CC(Cc1cccs1)N(Cc1ccc(Cl)cc1)C(=O)C1CC1 (centres undefined)	-3.0%	-10.2%[1.06 µM]
COC(=O)COc1ccc2c(C)c(-c3ccccc3)c(=O)oc2c1	15.0%	0.3%
COc1ccc(OC)c(NC(=O)CCc2c(C)nc3c(-c4ccccc4)c(C)nn3c2C)c1	-22.1%	-7.4%
O=C(Cc1ccc(Cl)cc1)NCC(c1cccs1)S(=O)(=O)c1ccc(F)cc1 (centres undefined)	-10.0%	11.6%
N#Cc1ccc(C(=O)Nc2ccc(Cl)c(C(F)(F)F)c2)cc1	?	9.3%[1.06 µM]
O=S(=O)(NCc1ccccc1Cl)c1ccc(N2CCCCS2(=O)=O)cc1	-10.2%	-3.5%
Cc1nn(C)cc1B1OC(C)(C)C(C)(C)O1	22.4%	11.5%
CCOc1cccc(CC(=O)NCc2ccc3c(c2)CCN3C(C)=O)c1OCC	21.1%	17.2%
O=c1cc(-c2ccc(F)cc2)oc2ccc(Cl)cc12	267.0%[activator]	22.0%
CCCN1Cc2cccc(C(=O)Nc3cc(C)cc(C)c3)c2C1=O	-9.9%	-8.4%
COc1ccc(-c2noc(CSc3nnc(-c4ccncc4)n3-c3ccc(C)c(C)c3)n2)cc1	-13.4%	-3.9%
COc1ccc(C23CC4CC(CC(C(=O)NCc5ccccc5CN(C)C)(C4)C2)C3)cc1	-0.3%	-2.5%
COc1ccc(OC)c(NC(=O)CSc2ccc(-c3cccs3)nn2)c1	14.8%	5.8%
Cc1nn(CN(Cc2ccccc2)CC(F)(F)F)c(=O)c2ccccc12	4.9%	-1.8%
CCCOC(=O)c1ccc(NC(=O)Cc2csc(C)n2)cc1	75.3%[activator]	32.2%[activator]
COC(=O)c1cc(NC(=O)c2sc3ccccc3c2Cl)cc(C(=O)OC)c1	-6.8%	6.8%
CCCCN(C)CCNC(=O)C1CCCN(S(=O)(=O)c2cccc3nsnc23)C1 (centres undefined)	-25.9%	-12.3%
Cc1ccc(-c2nc(C)c(C(=O)NC3C=CS(=O)(=O)C3)s2)cc1 (centres undefined)	65.4%[activator]	-19.6%
CCn1cc(C(=O)N2CCN(c3ccc(OC)cc3)CC2)c(=O)c2cc(S(=O)(=O)N3CCOCC3)ccc21	-26.6%	-6.7%
CCOC(=O)C1CCCN(CCC(=O)Nc2cc(OC)ccc2OC)C1 (centres undefined)	10.9%	12.2%
Cc1ccc(C)c(OCC(=O)Nc2ccc(-c3nc4ccccc4o3)cc2)c1	41.1%[activator]	-4.0%
O=c1oc2c(CN3CCCC3)c(O)ccc2cc1-c1ccccc1	14.2%	-3.7%
Cc1c(C(=O)OCC(=O)NCC2CCCO2)oc2ccccc12 (centres undefined)	23.7%	-0.6%
COCc1cc(C)nc2sc3c(c12)NC(c1ccc(NC(C)=O)cc1)N(c1ccc(C)cc1)C3=O (centres undefined)	72.6%[activator]	4.9%
COc1ccc(-c2nsc3c2NC(=O)CC3c2ccc(OC)cc2)cc1 (centres undefined)	24.8%	6.9%
CCN1C(=O)CC(C(=O)Nc2ccc(OC)cc2)SC1=Nc1ccc(C)c(C)c1 (centres undefined)	-7.6%	-8.0%
COc1cc(OC)c(OC)cc1/C=C(/C#N)c1nc2ccccc2[nH]1	152.1%[activator]	0.0%
COc1ccc(C)cc1NCc1nnc2n1CCCCC2	3.8%	-0.6%
CC(C)CN1CC(C(=O)Nc2nc3c(s2)CCCCC3)CC1=O (centres undefined)	-9.9%	?
CC1(C)CC(NC(=O)Nc2ccc(OC(F)F)c(Cl)c2)CC(C)(C)N1	-19.1%	-3.4%
Cc1cc(F)ccc1S(=O)(=O)Nc1ccc2c(c1)CCCN2C(=O)c1cccs1	-27.2%	134.5%[activator]
CC(C)(C)NC(=O)NC(=O)CSc1nc(C2CC2)nc2ccccc12	?	?
Cc1cc(OCC(=O)Nc2sc3c(c2C(=O)N2CCOCC2)CCCC3)ccc1Cl	-6.8%	1.9%
O=c1c(S(=O)(=O)c2ccccc2)c[nH]c2cc(F)c(F)cc12	0.1%	5.4%
COc1ccc(C2C(C(=O)Nc3ccc(C)cn3)=C(C)NC3=C2C(=O)CCC3)c(OC)c1 (centres undefined)	14.4%	6.6%
O=C(Nc1nn[nH]n1)c1cccc(S(=O)(=O)N2CCOCC2)c1	-5.4%	-5.4%
CCCSC1=NC2(CCN(C(=O)NC3CCCCC3)CC2)N=C1c1ccc(C)cc1	-11.6%	-4.1%
COc1ccc2cc(C(=O)NCc3ccc(C(=O)N4CCN(C)CC4)cc3)[nH]c2c1	36.0%[activator]	-0.6%
Nc1ccc(C(O)c2ccccc2)cc1 (centres undefined)	-10.7%	-4.2%
COC(=O)CNC(=O)C(c1ccccc1)c1ccccc1	-8.5%	2.7%
CCCCSc1nnc2c(n1)OC(c1ccc(Br)s1)N(C(C)=O)c1ccccc1-2 (centres undefined)	6.7%	5.3%
COC(=O)c1c(NC(=O)c2nc(SC)ncc2Cl)sc2c1CCCC2	-6.7%	-20.0%
O=C(OCc1ncc(-c2ccc(Cl)cc2)o1)c1cccc(F)c1	0.0%	1.1%

Another view of three compounds above.
> COc1ccc(-c2nsc3c2NC(=O)CC3c2ccc(OC)cc2)cc1 (centres undefined)
- 2A firefly: 24.8%
- 2A Renilla: 6.9%
> CCN1C(=O)CC(C(=O)Nc2ccc(OC)cc2)SC1=Nc1ccc(C)c(C)c1 (centres undefined)
- 2A firefly: -7.6%
- 2A Renilla: -8.0%
> COc1cc(OC)c(OC)cc1/C=C(/C#N)c1nc2ccccc2[nH]1
- 2A firefly: 152.1%[activator]
- 2A Renilla: 0.0%
